Bioassay records deposited in PubChem by National Center for Advancing Translational Sciences (NCATS).
RE007 growth inh – qHTS Assay for Inhibitors of the HIV-1 protein Vpr. S. pombe RE007 Vpr strain, BacTiter-Glo ATP luminescence, 24 h; control for the full effect not named in the record. Potency, µM (titrated, usually from 92.2 µM), for inactives: at the highest dose activity change, negative = less growth. 360,000 tested, 0.21% active; active = well fitted falling curve with a large enough effect; inconclusive = small, poorly fitted or top-dose-only effect; inactive = no such curve, though single readings can be large or run the other way;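 note: % is set by controls: 0 for no effect and ±100 for the full control effect; nearly all actives have a fitted effect of over 50% in size; the assay follows cell death caused by Vpr and the record does not say whether a fall means rescue or toxicity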
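Fission yeast RE007 carrying one integrated HIV-1 vpr copy, seeded at OD 0.01 in PMG+AL medium with 23 nL pinned compound. Grown 24 h at 30 degrees; viability read by BacTiter-Glo luminescence after 5 min.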
Cruzain noTriton – qHTS Assay for Promiscuous and Specific Inhibitors of Cruzain (without detergent). purified cruzain, Z-FR-AMC fluorescence, no detergent. Potency, µM, inactives show max response, negative = inhibition, hits mostly inhibitors. AID 1476, 2009. 200,000 tested, 2.3% active; active = well fitted curve in the direction sought with a large enough effect; inconclusive = small, poorly fitted or top-dose-only effect, or another doubt; inactive = no such curve, though single readings can be large; an effect the other way counts as inactive or inconclusive;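 note: plate controls were enzyme without inhibitor for no effect and buffer without enzyme for full effect; nearly all actives have a fitted effect of over 40% in size; top concentration of the series not given in the record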
Target sequence (P25779 123-467 limits assumed): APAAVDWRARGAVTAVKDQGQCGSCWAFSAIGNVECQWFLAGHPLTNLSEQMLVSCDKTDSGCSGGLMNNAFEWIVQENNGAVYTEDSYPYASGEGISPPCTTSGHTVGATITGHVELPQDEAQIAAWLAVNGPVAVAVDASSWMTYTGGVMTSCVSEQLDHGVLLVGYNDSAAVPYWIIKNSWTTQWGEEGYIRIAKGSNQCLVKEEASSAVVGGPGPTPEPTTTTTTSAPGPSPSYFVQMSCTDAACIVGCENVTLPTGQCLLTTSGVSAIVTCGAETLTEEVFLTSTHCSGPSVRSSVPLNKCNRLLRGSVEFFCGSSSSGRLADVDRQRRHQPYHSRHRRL
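Purified cruzain at 1.5 nM, pre-incubated 15 min with compound at room temperature in 100 mM sodium acetate pH 5.5, 5 mM DTT, 0.00005% Triton X-100. Reaction started with 2 uM Z-FR-AMC; AMC fluorescence increase over 60 s gives rate.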
MARV entry inh – qHTS for inhibitors of binding or entry into cells for Marburg Virus; Potency, µM (doses to about 37.8 µM), without a hit: top-dose activity change, negative = inhibition, hits mostly inhibitors; AID 540276, 2011; 300,000 tested, 1.8% active; Marburg virus pseudotyped entry inhibition, cell reporter; control for the full effect not named in the record; about a third of the inactives were read at about 46 µM; active = well fitted inhibition curve with a large enough effect; inconclusive = small, poorly fitted or top-dose-only effect, or effect the other way; inactive = flat fitted curve, though single readings scatter; tested in HEK293 cells; about a fifth of its hits are not listed in these tables; note: % is set by controls: 0 for no effect and ±100 for the full control effect; luciferase read-out
SARS PLP yeast – qHTS of Yeast-based Assay for SARS-CoV PLP; S. cerevisiae expressing SARS-CoV PLpro, growth rescue; control for the full effect not named in the record; Potency, µM (titrated, usually from 32.9 µM), inactives show at the highest dose activity, positive = growth rescue; 330,000 tested, 0.19% active; AID 485353, 2010; note: 0% is about no effect; nearly all actives have a fitted effect of over 55% in size; growth read by luminescence after 48 h
StopGo reporter – High Throughput Screening for Foot and Mouth Disease Virus Antivirals; Potency, µM (titrated, usually from 57.9 µM), inactives show at the highest dose signal change, negative = less light; human cells with a luciferase reporter of 2A StopGo recoding; control for the full effect not named in the record; 410,000 tested, 1.2% active; AID 1159524, 2015; active = well fitted falling curve with a large enough effect; inconclusive = small, poorly fitted or top-dose-only effect; inactive = no such curve, though single readings can be large or run the other way; tested in HEK293T cells; note: % is set by controls: 0 for no effect and ±100 for the full control effect; nearly all actives have a fitted effect of over 45% in size; luciferase light after 4 h
LASV entry inh – qHTS for Inhibitors of binding or entry into cells for Lassa Virus; 300,000 tested, 1.2% active; Potency, µM (doses to about 37.9 µM), for inactives: at the highest dose activity change, negative = inhibition, actives largely listed as inhibitors; Lassa virus pseudotype entry inhibition, cell reporter; control for the full effect not named in the record; active means well fitted inhibition curve with a large enough effect; inconclusive means small, poorly fitted or top-dose-only effect, or effect the other way; inactive means flat fitted curve, though single readings scatter; tested in HEK293 cells; note: % is set by controls: 0 for no effect and ±100 for the full control effect; nearly all actives have a fitted effect of over 50% in size; luciferase read-out
NS1 inh – qHTS Assay for Inhibitors of Influenza NS1 Protein Function; Potency, µM (highest dose often 46.1 µM), for inactives: at the top dose activity, positive = more growth; S. cerevisiae slowed by influenza A NS1, growth recovery by OD600; 270,000 tested, 0.4% active; note: actives are rising curves; nearly all actives have a fitted effect of over 50% in size
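Recovery from NS1-induced slow growth read by OD600 in budding yeast switched to galactose assay medium (pH 6.0, -URA) at 1:100 dilution. Compound 23 nl per well; the matching strain lacking NS1 serves as control.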
Cruzain inh Det – qHTS Assay for Promiscuous and Specific Inhibitors of Cruzain (with detergent); purified cruzain, Z-FR-AMC fluorescence, 0.01% Triton; Potency, µM, without a hit: max response, negative = inhibition, most hits filed as inhibitors; 200,000 tested, 0.43% active; AID 1478, 2009; active = well fitted curve in the direction sought with a large enough effect; inconclusive = small, poorly fitted or top-dose-only effect, or another doubt; inactive = no such curve, though single readings can be large; an effect the other way counts as inactive or inconclusive;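 note: plate controls were neutral wells for no effect and buffer without enzyme for full effect; nearly all actives have a fitted effect of over 40% in size; top concentration of the series not given in the record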
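Enzyme 1.5 nM, Z-FR-AMC 2 uM, NaOAc 100 mM pH 5.5, DTT 5 mM, Triton X-100 0.01%; 15 min RT compound preincubation; kinetic ex360/em450, 60 s delta.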
Active calls of the source: *; ? = inconclusive; . = no result given; & = joins results of further samples; [ ] = dose if it differs, or a comment. Unless noted, calls come from the whole dose curve; as a rule, active means well fitted rising curve with a large enough effect; inconclusive means small, poorly fitted or top-dose-only effect; inactive means no such curve, though single readings can be large or run the other way. Potency is the fitted concentration of half-maximal effect.

Value order – RE007 growth inh	Cruzain noTriton	MARV entry inh	SARS PLP yeast	StopGo reporter	LASV entry inh	NS1 inh	Cruzain inh Det
1) CCOC(=O)C1=C(C)N(C)C(=O)NC1c1ccc2c(c1)OCO2 (stereo not given)
  1%	.	-7%[46.1 µM]	-2%	4%	4%[46.1 µM]	4%	.
2) O=C1C(=O)N(Cc2cccnc2)C(c2ccccn2)/C1=C(/O)c1ccccc1 (stereo not given)
  6%	8%	13%	1%	4%	9%	2%	-0.9%
3) COc1ccc(C(=O)On2c(-c3ccc(Br)cc3)nc3ccccc3c2=O)cc1
  ?	?	?	-30%	-28%	?	-47%	-2.1%
4) Nc1ccc(SCc2cccnc2)cc1
  1%	.	3%[46.1 µM]	0%	15%	-2%	8%	.
5) CCCCC(=O)Nc1ccc(NC(=O)C2CC2)cn1
  19%	-2%	9%[46.1 µM]	-1%	52%[activator]	-1%	-5%	4.7%
6) COc1cc(/C=C/C(=O)c2ccc3c(c2)OCCO3)cc(Br)c1OCC(=O)N(C)C
  1%	.	?	-7%	7.9µM*	-23%	-8%	.
7) CC1CCN(C(=O)CN2CC(C)Sc3ccccc32)CC1 (stereo not given)
  .	-8%	.	.	-3%	?	.	-1.1%
8) CC(C)Oc1ccccc1/C=N/NC(=O)c1ccccc1Cl
  2%	.	.	4%	-5%	.	-4%	.
9) CCc1c(C)c2ccc(OCC(=O)OC(C)C)c(C)c2oc1=O
  -16%	5%	-10%	6%	-2%	-19%	-1%	-10%
10) CCn1c(SCC(=O)N2CCCCCC2)nc2ccccc2c1=O
  41%	.	?	-6%	3%	?	-1%	.
11) O=C(Cc1ccccc1)NCC(=O)OCC(=O)c1ccc(F)cc1
  -12%	.	.	-7%	9%	.	4%	.
12) O=S(=O)(c1cc(C(F)(F)F)ccc1Cl)N1CCCCCC1
  -6%	5%	-5%	-5%	.	-7%	-9%	0.6%
13) O=C(OCc1cc(=O)n2nc(C3CC3)sc2n1)c1ccc(NC(=O)c2ccccc2Cl)cc1
  .	-8%	.	.	20µM*	?	.	-1.1%
14) CC(C)(C)C(=O)Nc1nc2c(s1)CN(Cc1ccccc1)CC2
  -4%	.	?	1%	2%	5%	0%	.
15) S=C=Nc1ccccn1
  7%	.	.	14%	28%	.	0%	.
16) CC(C)c1c(O)nc(SCC(=O)Nc2ccc3c(c2)CCC3)[nH]c1=O
  26%	-10%	-13%	.	0%	-6%	-3%	-8.3%
17) COc1ccc(NC(=O)C2Cc3ccccc3C(=O)O2)cc1 (stereo not given)
  22%	.	.	-1%	52%[activator]	.	-2%	.
18) O=C(C1=C[C@H](c2ccccc2)C[C@H](OCCCCO)O1)N1CCOCC1
  5%	.	.	-1%	-8%	.	2%	.
19) CC12CCC(C(=O)NCc3ccco3)(OC1=O)C2(C)C (stereo not given)
  -7%	-3%	9%	1%	10%	?	-8%	-2.7%
20) COc1ccc(CCN2C(=S)N(c3ccccc3)C(=O)C2CC(=O)O)cc1OC (stereo not given)
  -9%	.	.	-1%	-5%	.	4%	.
21) CCC(Sc1nnc2c3ccccc3n(C)c2n1)C(=O)Nc1nnc(C(C)C)s1 (stereo not given)
  .	0%	1%[46.1 µM]	.	-12%	1%[46.1 µM]	.	-2.4%
22) COc1cc(/C=N/NC(=O)c2csc3c2CCCC3)ccc1OCCN1CCOCC1
  -9%	.	.	-6%	?	.	-5%	.
23) CS(=O)(=O)N1CCc2cc(S(=O)(=O)NCc3ccccc3Cl)ccc21
  .	-7%	.	.	0%	2%[46.1 µM]	.	-5.4%
24) O=P(/C(=N/O)N1CCOCC1)(N1CCOCC1)N1CCOCC1
  0%	1%	-19%	-1%	-3%	0%	3%	1.7%
25) COc1cc(/C=C2/C(=N)N3C=CSC3=NC2=O)ccc1OCCCOc1c(C)cccc1C
  16%	-8%	9%	-4%	-13%	0%	6%	-1.4%
26) CCOC(=O)c1sc(NC(=O)C2=COCCO2)c(C#N)c1C
  -20%	.	?	-10%	18%	-19%[46.1 µM]	.	.
27) COc1ccc(OC)c(CCNC(=O)Cn2nc(C)c3c(C)n(-c4ccccc4)nc3c2=O)c1
  6%	.	?	0%	?	-15%[46.1 µM]	-2%	.
28) COc1ccccc1CN1CCC(CNS(=O)(=O)c2cc(-c3onc(C)c3C)ccc2OC)CC1
  -6%	2%	.	2%	11%&15%	-1%[46.1 µM]	-1%	0.3%
29) O=C(NNC(=O)c1cccc2ccccc12)c1ccc2c(c1)OCO2
  11%	.	16%	0%	65%[activator]	?	-2%	.
30) CCCn1cnc2cc(NCc3cccc(OC)c3O)ccc21
  0%	3%	9%	9%	47%[activator]	10%	-79%	-0.3%
31) Cc1nc2cc(C)c(C)cc2s1
  -15%	.	-2%[46.1 µM]	0%	10%	.	.	.
32) O=C(c1ccccc1)c1c[nH]c2ccccc12
  ?	.	?	-6%	6%	16%[46.1 µM]	-38%	.
33) COc1ccccc1NC(=O)COC(=O)c1c[nH]c(=O)[nH]c1=O
  -2%	.	.	0%	-13%	.	-4%	.
34) COC(=O)c1sccc1NC(=O)CSCCc1ccncc1
  -2%	.	9%[46.1 µM]	-3%	-9%	24%	.	.
35) CCN(C(=O)c1nn(-c2ccc(OC)c(Cl)c2)c(=O)c2c1c1ccccc1n2C)c1cccc(C(F)(F)F)c1
  .	-6%	0%[46.1 µM]	.	0%	?	.	-1.7%
36) COc1ccc(-c2cc(C(F)(F)F)n3nc(C(=O)NCc4ccco4)cc3n2)cc1OC
  7%	?	?	4%	1%	-26%	6%	-20%
37) O=C(CSc1nc(-c2ccccc2)no1)N1CCN(c2ccccc2)CC1
  .	0%	.	.	1%	1%[46.1 µM]	.	2.1%
38) CN(C)S(=O)(=O)Nc1ccc(NS(=O)(=O)N(C)C)c(S(=O)(=O)c2ccccc2)c1
  14%	-18%	-6%&-6%	1%	1%	-13%	-13%	-2.3%
39) CCCCc1ccc(N2C(=NC(=O)C3CCCO3)SC3CS(=O)(=O)CC32)cc1 (stereo not given)
  0%	.	?	?	13%	-4%[46.1 µM]	-13%	.
40) Cc1ccc(C)c(-c2cc(C(=O)NC3CC3)c3ccccc3n2)c1
  10%	.	.	-12%	-11%	.	-12%	.
41) NS(=O)(=O)c1ccc(N/C=C\C(=O)c2ccncc2)cc1
  -5%	.	?	1%	5%	1%	0%	.
42) O=C(c1ccc(CS(=O)Cc2ccc(Cl)cc2)o1)N1CCN(c2ccc(F)cc2)CC1 (stereo not given)
  -3%	.	?	.	0%	-22%[46.1 µM]	9%	.
43) COC(=O)c1ccc(/C=C(\C#N)C(=O)NC(C)c2ccccc2)cc1 (stereo not given)
  -1%	4%	5%	-41%	?	.	-43%	-1.3%
44) Oc1c(Cl)cc(Cl)cc1C=Nc1ccc2c(c1)OCCO2
  ?	-3%	-46%	-20%	?	?	-16%	-0.9%
45) COc1cccc(CNC(=O)CN2C(=O)N(c3c(C)cccc3C)S(=O)(=O)c3ccccc32)c1OC
  .	?	.	.	?	?	.	-3.1%
46) COc1ccc2c(c1)CC(C(=O)Nc1cc(OC)c(OC)c(OC)c1)CO2 (stereo not given)
  .	0%	.	.	-3%	18%[46.1 µM]	.	-1.7%
47) O=C(CN1CCCCC1)N1CCN(C(=O)CN2CCCCC2)CC1
  .	6%	3%	-1%	.	.	-7%	-5.7%
48) Nc1cc(=O)[nH]c(SCC(=O)Nc2ccc([N+](=O)[O-])cc2)n1
  -7%	.	.	1%	0%	.	7%	.
49) CC(C)(C)CN1C(=O)C(=O)NC[C@H]1Cc1ccc(O)cc1
  -18%	.	.	7%	-23%	.	-2%	.
50) CCOc1ccc(CCNC(=O)C2CCCN(S(=O)(=O)N3CCOCC3)C2)cc1OCC (stereo not given)
  -13%	.	.	3%	-18%	.	-3%	.
51) CCOC(=O)C1=C(C)OC(N)=C(C(=O)OCC)C1c1ccncc1 (stereo not given)
  -6%	-6%	-2%	2%	-27%	-2%	-7%	3.0%
52) CC(C)CNS(=O)(=O)c1ccc(C(=O)Nc2ccc3c(c2)OCO3)cc1
  -4%	.	-8%[46.1 µM]	0%	44%[activator]	20%	-6%	.
53) COc1cccc(CN2CCN(C(=O)c3cccs3)CC2)c1OC
  6%	-1%	8%	0%	-16%	2%	0%	4.2%
54) CCc1nc2nc(C)cc(Nc3cccc(C(F)(F)F)c3)n2n1
  7%	2%	4%	-3%	0%	4%	4%	4.2%
55) Cc1ncc(CO)c(/C=N/N=C/c2ccccc2O)c1O
  -3%	-13%	28%	-16%	3%	?	13%	-4.4%
56) CCN1C(=O)CC(N2CCC(c3nc4ccccc4[nH]3)CC2)C1=O (stereo not given)
  -3%	.	16%[46.1 µM]	-4%	6%	.	.	.
57) O=C(NCCc1ccccc1)C1c2ccccc2C(=O)N1C1CC1 (stereo not given)
  6%	-3%	-8%	1%	4%	-6%	-4%	2.7%
58) CCOc1ccccc1OC(=O)CN1C(=O)c2ccccc2C1=O
  -9%	.	.	1%	-17%	.	-27%	.
59) COc1cc2ncnc(NCc3ccc(F)cc3)c2cc1OC
  -14%	.	.	-1%	-1%	?	1%	.
60) COc1ccc(C(=O)N2CCOC2CNC(=O)C(=O)NCc2ccco2)cc1 (stereo not given)
  9%	.	-2%	0%	-7%	4%	-2%	.
61) Cc1ccc([C@@H]2[C@@H]3C(=O)N(c4ccccc4)C(=O)[C@@H]3[C@]3(C)C(=O)N(Cc4ccccc4)CC(=O)N23)o1
  -4%	.	.	1%	1%	.	-3%	.
